# Screens from PubChem BioAssay.
# VDR inh: inhibitors of human vitamin D receptor; VDR-SRC2-3 peptide fluorescence polarization, 2 h; AID 504847; actives 0.93% (n = 400,000); Potency, µM, for inactives: max response, negative = inhibition, usual class: inhibitors; P11473; active = well fitted inhibition curve with a large enough effect; inconclusive = small, poorly fitted or top-dose-only effect, or another doubt; inactive = no such curve, though single readings can be large or run the other way; also: series mostly up to about 120 µM
# Target sequence (P11473 whole entry, looked up): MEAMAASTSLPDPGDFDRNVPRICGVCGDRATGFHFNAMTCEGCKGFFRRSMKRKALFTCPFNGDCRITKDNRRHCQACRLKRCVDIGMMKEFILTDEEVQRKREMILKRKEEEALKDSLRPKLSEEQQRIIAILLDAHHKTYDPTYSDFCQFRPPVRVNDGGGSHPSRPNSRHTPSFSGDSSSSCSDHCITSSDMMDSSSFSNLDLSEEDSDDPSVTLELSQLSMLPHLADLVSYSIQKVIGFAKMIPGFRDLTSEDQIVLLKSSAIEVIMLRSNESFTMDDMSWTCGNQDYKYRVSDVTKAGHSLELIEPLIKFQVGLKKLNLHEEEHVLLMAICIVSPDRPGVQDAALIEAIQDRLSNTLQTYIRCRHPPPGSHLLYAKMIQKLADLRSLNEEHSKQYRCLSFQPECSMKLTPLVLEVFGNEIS
#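 The screen uses fluorescence polarization to detect compounds that interfere with recruitment of the SRC2-3 coactivator peptide to VDR; plates are read after 2 h at room temperature.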
# Starred values were filed as active, the others as inactive; ? = inconclusive; & = joins results of further samples; [ ] = another dose, or the depositor's remark. % is scaled to controls: 0 for no effect and ±100 for the full control effect; potency is read from the fitted curve at half-maximal effect. These rows are one share of the data; rates above refer to the full screens.
no.	SMILES	VDR inh
1	COc1ccc(NC(=O)C2CCN(c3ncnc4c3nc3n4CCCCC3)CC2)c(OC)c1	8%
2	Cc1ccc(NC2CCCN(C(=O)c3cn4cccc(C)c4n3)C2)cc1C (stereo not drawn)	-3%
3	CCCSc1nnc(NC(=O)c2nc(SC)ncc2Cl)s1	8%
4	COc1cccc(-n2nnc3c(=O)n(Cc4ccc(Br)cc4)cnc32)c1	4%
5	O=C(c1ccc2c(c1)OCO2)C1CCCN(C(=O)NCc2ccccc2)C1 (stereo not drawn)	-5%
6	Cc1ccc(NC(=O)COC(=O)CC2SC(N3CCCC3)=NC2=O)cc1 (stereo not drawn)	2%
7	COc1ccc(S(=O)(=O)NC2CCSc3ccccc32)cc1NC(C)=O (stereo not drawn)	5%
8	COc1ccc(CC(=O)NCc2n[nH]c(=S)n2-c2cccc(C)c2)cc1	-14%
9	Cc1ccc(SCC(=O)NCc2cccnc2)cc1	16%
10	COCCNC(=O)Cn1cc(S(=O)(=O)Cc2ccccc2Cl)c2ccccc21	7%
11	CCCC1Cc2nc(Cl)c(C#N)cc2CO1 (stereo not drawn)	-5%
12	CN1CCN(C2=C(Cl)C(=O)N(CCc3ccccc3)C2=O)CC1	11%
13	O=c1cc(CSc2ccccc2)[nH]c(=S)[nH]1	-6%
14	CCOC(=O)c1nnsc1N	3%
15	COC(=O)c1nc2n(n1)C(c1ccc(OC)c(OC)c1)C(C(=O)OC1CCCCC1)=C(C)N2 (stereo not drawn)	-6%
16	O=C(CCN1C(=O)c2ccccc2C1=O)NC(=S)Nc1cccc(Cl)c1	17%
17	C/C(=N/Nc1nc(C)cc(-c2ccccc2)n1)c1ccco1	10%
18	COC(=O)/C=C/c1ccc(C(=O)NCC(=O)N[C@@H](CCC(=O)OC)C(=O)N[C@@H](CC(C)C)C(N)=O)cc1	-3%&-5%
19	O=C(c1cccnc1)N(Cc1ccccc1)c1ccccc1	-4%
20	CCCCC1CCC(C(=O)OCC(=O)N(CCOC)c2c(N)n(Cc3ccccc3)c(=O)[nH]c2=O)CC1 (stereo not drawn)	-5%
21	O=C(Cn1c(CO)nc2ccccc21)NCc1ccc2c(c1)OCO2	9%
22	COc1ccc(C2CC(c3ccccc3)Nc3nc(NC(=O)c4ccco4)nn32)cc1 (stereo not drawn)	-10%
23	COc1cccc2c1OC1(C)CC2N(C(=O)c2ccco2)C(=S)N1c1ccc(F)cc1 (stereo not drawn)	21%
24	CC1CCCC(C)N1C(=O)CSc1nc2c(c(=O)n(C)c(=O)n2C)n1C (stereo not drawn)	-3%
25	NS(=O)(=O)c1ccc(CCNCC(=O)N2CCC(Cc3ccccc3)CC2)cc1	-3%
26	CCn1nc(C)cc1C(=O)N1CCCC(C(=O)c2ccc(Oc3ccccc3)cc2)C1 (stereo not drawn)	-14%
27	COC(=O)c1ccccc1NC(=O)CN1CCCCC1	8%
28	Cc1nn(Cc2c(F)c(F)c(F)c(F)c2F)c(C)c1NC(=O)c1ccc(COc2ccccc2Cl)o1	-17%
29	CCc1ccc(-c2cc(C)no2)cc1S(=O)(=O)N1CCN(c2cccc(C)c2C)CC1	3%
30	CC1(C)CC[C@]2(CO)CC[C@]3(C)C(=CCC4[C@@]5(C)CC[C@H](O)[C@@](C)(CO)C5CC[C@]43C)[C@@H]2C1 (stereo partly drawn)	6%
31	COCCn1c(SCc2cnc(-c3ccccc3)s2)nnc1-c1ccncc1	-6%
32	CC(=O)Nc1ccc(NC(=O)CSc2nnc(N)n2-c2ccccc2)cc1	5%
33	O=c1onc2cnc3ccccc3n12	?
34	COc1cccc(NC(=O)CN(c2cccc(F)c2)S(C)(=O)=O)c1	-16%
35	Cc1ccc([N+](=O)[O-])cc1NC(=O)Cc1ccc(F)cc1	-15%
36	COc1ccc(-c2cc(=O)oc3cc(OC(C)C(=O)NCC4CCC(C(=O)O)CC4)ccc23)cc1 (stereo not drawn)	-15%

# Exported as labelled records: part of the list above
33: O=c1onc2cnc3ccccc3n12
  VDR inh: ?
32: CC(=O)Nc1ccc(NC(=O)CSc2nnc(N)n2-c2ccccc2)cc1
  VDR inh: 5%

# The list continues:
no.	SMILES	VDR inh
37	CCCCNC(=S)NNC(=O)CCn1cc(C)cn1	-5%
38	COc1ccc(-c2cn(Cc3ccc(C(N)=O)cc3)c(-c3ccncc3)n2)cc1	-14%
39	COc1ccc(C)cc1NC(=O)CSc1nc(=O)n(Cc2ccccn2)c2c1CCC2	7%
40	CCC1(c2ccc(F)cc2)NC(=O)N(CC(=O)N2CCc3ccccc32)C1=O (stereo not drawn)	16%
41	NC(=O)c1ncn([C@@H]2O[C@H](CNCc3cccc4c3sc3ccccc34)[C@@H](O)[C@H]2O)n1	?
42	O=C1CCCCN1CCCC(=O)N1CCCC(Nc2ccc(F)c(F)c2)C1 (stereo not drawn)	1%
43	O=C(O)c1ccc(C=C(c2nc3ccccc3s2)c2nc3ccccc3s2)cc1	?
44	CC(=O)c1ccc(N2CCN(C(=O)c3cn(C)c(=O)c4c3c3ccccc3n4C)CC2)cc1	-1%
45	CCOC(=O)c1cc(S(=O)(=O)Nc2ccc(OC)cc2OC)cn1C	9%
46	O=C(COc1ccccc1[N+](=O)[O-])Nc1cccc(S(=O)(=O)NC2=NCCCCC2)c1	-10%
47	CN(C)S(=O)(=O)c1cc(C(=O)OCCn2cnc3c2c(=O)n(C)c(=O)n3C)ccc1Cl	-2%
48	S=C(NNC(=S)NC1CC2CCC1C2)NC1CC2C=CC1C2 (stereo not drawn)	7%
49	CC1C=CCC2C(=O)N(c3cccc(C(=O)Nc4ccc(Br)cc4)c3)C(=O)C12 (stereo not drawn)	7%
50	Clc1ccc(OCCn2cnc3ccccc32)cc1	-22%
51	CC1CCCCN1C(=S)NCc1ccccc1 (stereo not drawn)	4%
52	O=C(O)c1ccc(NS(=O)(=O)c2ccc(N3CCCC3)c([N+](=O)[O-])c2)cc1	-4%
53	CC(C)NS(=O)(=O)c1cc(F)ccc1CN1C(=O)c2cccnc2C1=O	33%[activator]
54	O=C(NCc1ccco1)c1cccc2c1C(=O)c1ccc(N3CCC(Cc4ccccc4)CC3)cc1S2(=O)=O	-8%
55	Cc1cc(/C=N/n2c(COc3ccccc3)nc3ccccc3c2=O)c(O)c([N+](=O)[O-])c1	-10%
56	CN(C)S(=O)(=O)c1ccc(N=Cc2c(C(F)(F)F)[nH][nH]c2=O)cc1	5%
57	COc1ccc(CN2CCN(Cc3c[nH]c4ccccc34)CC2CCO)c(F)c1 (stereo not drawn)	9%
58	COc1cccc(CN=C2Nc3ccccc3CS2)c1	3%
59	COc1cccc(N(CC(=O)N2CCc3ccccc3C2)S(C)(=O)=O)c1	9%
60	Cc1cccc2sc(N3CCN(C(=O)CS(=O)(=O)c4ccc(F)cc4)CC3)nc12	5%
61	Cn1c(/N=C/c2cccs2)nc2ccccc21	-15%
62	Oc1c(C(c2ccccc2)N2CCC(O)CC2)sc2nc(-c3ccco3)nn12 (stereo not drawn)	12%
63	CC(=O)Nc1nnc(SCC(=O)NCCOc2ccccc2)s1	-11%
64	CN(C)CCNC(=O)CNC(=S)N(Cc1ccccc1)Cc1ccccc1F	9%
65	N#Cc1ccccc1NC(=O)CSc1nc(-c2ccccc2)cc(C(F)(F)F)c1C#N	9%
66	COc1cc(Cl)c(NS(=O)(=O)c2ccc(-c3coc(C)n3)cc2)c(OC)c1	5%
67	C[C@H](NC(=O)[C@@H]1Cc2ccccc2CN1)C(=O)NC1CCCC1	14%
68	CCC(C)Sc1ccc([C@@H]2[C@H]3C(=O)N(CC)C(=O)[C@H]3[C@]3(C(=O)OC)CCCN23)cc1OC (stereo partly drawn)	-14%
69	O=C(O)c1c2c(nc3ccccc13)/C(=C/c1cccc([N+](=O)[O-])c1)CCC2	-7%
70	COc1ccc2c(c1)c(CC(=O)OCC(N)=O)c(C)n2C(=O)c1ccc(Cl)cc1	4%
71	N#Cc1nc(-c2ccc(F)cc2)oc1N1CCC(C(N)=O)CC1	3%
72	Cc1cccc(NC(=S)NC(=O)CCc2ccccc2)c1C	-10%
73	CCOC(=O)Nc1ccc(NC(=O)OCC)cc1	3%
74	CC1CCCCC12NC(=O)N(CC(=O)Nc1cccc(S(=O)(=O)N3CCCCC3)c1)C2=O (stereo not drawn)	?
75	Brc1csc(C=Nc2ccc3c(c2)OCCOCCOCCOCCO3)c1	19%
76	O=C(NCCCNc1ccc(C(F)(F)F)cc1[N+](=O)[O-])c1ccc(Cl)cc1	-4%
77	CCn1c(SCC(=O)N(C)c2ccccc2)nc2c([nH]c3ccccc32)c1=O	-3%
78	Cc1oc2ccc(O)c(CN(C)Cc3ccccc3)c2c1C(=O)Nc1ccccc1	10%
79	Cc1cc(NS(=O)(=O)c2cccs2)no1	3%
80	COC(=O)c1cc2oc3ccccc3c2n1Cc1ccccn1	3%
81	COc1ccc(/C=C2\SC(=S)N(N3C(=O)CCC3=O)C2=O)cc1O	10%
82	Cc1ccccc1CC1CCN(CCCNC(=O)Nc2ccccc2)CC1	-5%
83	O=C(CSc1ccc(-c2ccco2)nn1)Nc1ccc(F)cc1	?
84	COc1ccc(OC)c(CNC(=O)Cc2ccc(NC(=O)N3CCCCc4ccccc43)cc2)c1	13%
85	Cn1cccc1-c1nc2ccc([N+](=O)[O-])cc2[nH]1	5%
86	COCCOC(=O)C1=C(C)NC(C)=C(C(=O)OC(C)C)C1c1cccc([N+](=O)[O-])c1 (stereo not drawn)	?
87	COc1ccccc1C(=O)Nc1nnc(-c2ccc(F)cc2)s1	13%
88	CCOc1ccccc1-n1c(SCC(=O)N2CCOCC2)nnc1-c1ccccn1	10%
89	COc1cc([N+](=O)[O-])ccc1N1C(=O)CC(Sc2nccc(C)n2)C1=O (stereo not drawn)	5%
90	CC(=O)c1ccc(S(=O)(=O)N2CCN(C(=O)c3ccccc3Cc3ccccc3)CC2)cc1	-19%
91	CCc1c(C)sc2c1CCN(Cc1ccc(F)cc1)C2c1ccccc1 (stereo not drawn)	14%
92	CN(C)CCNC(=O)CN1N=C(c2ccccc2)CCC1=O	5%
93	CN(Cc1cccs1)C(=O)c1ccc(S(=O)(=O)N2CCCCC2)cc1	-8%
94	CC(C)N1C(=O)CCC1C(=O)NCc1ccco1 (stereo not drawn)	16%
95	CN(Cc1ccc(C#CCCO)cc1)CC1CCCN(CCc2ccc(Cl)cc2)C1 (stereo not drawn)	-2%
96	CC(=O)Nc1ccc(C=NNC(=O)c2ccc(NS(=O)(=O)c3cccs3)cc2)cc1	23%

# Remaining list, next part.
no.	SMILES	VDR inh
97	Cc1cccc(NC(=O)c2ccc3c(Cl)c4c(nc3c2)CCCC4)n1	-4%
98	CCOC(=O)N1CCc2c(sc(NCc3sccc3C)c2C(=O)Nc2cc(Cl)ccc2OC)C1	7%
99	CCOc1cc(S(=O)(=O)NC2CCCCCC2)ccc1F	0%
100	Cc1cccc(OCc2cc(=O)n3c4c(sc3n2)CCCC4)c1C	-3%
101	Clc1cccc(CNc2nnnn2-c2ccccc2)c1	-5%
102	COc1ccccc1N1CCN(C(=O)c2cc3c(=O)n(Cc4ccco4)ccc3nc2C)CC1	0%
103	COc1cc(OC)cc(-n2c3nc4ccccc4nc3c3c(=O)n(CC4CCCO4)cnc32)c1 (stereo not drawn)	3%
104	O=C1NC2NC(=O)N(C(Cc3ccccc3)C(=O)O)C2N1 (stereo not drawn)	3%
105	Cc1ccc(OCC(=O)Nc2cc(C(C)(C)C)on2)cc1C	1%
106	Cc1ccc(/C=N/NC(=O)Nc2ccccc2)o1	4%
107	Cc1ccc(/C=N/n2c(C)n[nH]c2=S)o1	-15%
108	NS(=O)(=O)c1ccc(CCNC(=O)CNC(=O)c2ccccc2F)cc1	1%

# Some values from the list:
# Entry for compound 103 under VDR inh: 3%
# Entry for compound 102 under VDR inh: 0%
# Entry for compound 105 under VDR inh: 1%

# Rewritten as labelled records: part of the list above
(97) Cc1cccc(NC(=O)c2ccc3c(Cl)c4c(nc3c2)CCCC4)n1
  VDR inh: -4%

(98) CCOC(=O)N1CCc2c(sc(NCc3sccc3C)c2C(=O)Nc2cc(Cl)ccc2OC)C1
  VDR inh: 7%

(99) CCOc1cc(S(=O)(=O)NC2CCCCCC2)ccc1F
  VDR inh: 0%

(100) Cc1cccc(OCc2cc(=O)n3c4c(sc3n2)CCCC4)c1C
  VDR inh: -3%

# Next records.
no.	SMILES	VDR inh
109	NC(=S)Nc1nccc(-c2cccs2)n1	15%
110	Cc1c(NC(=O)CN2C(=O)NC3(CCCCC3)C2=O)c(=O)n(-c2ccccc2)n1C	-19%
111	O=[N+]([O-])c1ccc2c(c1)C(O)n1ncnc1S2 (stereo not drawn)	-16%
112	CCNC(=S)NNC(=O)c1ccc(OC)cc1	-6%
113	CCc1cccc(C)c1NS(=O)(=O)c1cc2[nH]c(=O)c(=O)[nH]c2cc1C	10%
114	CCc1cccc(NC(=O)Cn2ccn3nc(-c4ccc(OC)c(OC)c4)cc3c2=O)c1	11%
115	COc1ccc(CCNCc2c(C(=O)O)c(C)n(Cc3ccccc3C)c2C)c(OC)c1	9%
116	CC1CC(C)CN(S(=O)(=O)N2CCCC(C(=O)NCCCN3CCOCC3)C2)C1 (stereo not drawn)	-1%
117	COc1cccc(NC(=O)NNC(=O)c2ccc3c(c2)NC(=O)C(C)(C)O3)c1	-2%
118	CCNC(=O)CC1C(=O)N(c2ccc(F)cc2)C(=O)N1CCOC (stereo not drawn)	-7%
119	O=C(C1=C[C@@H](c2ccc3c(c2)OCO3)C[C@@H](OCCCCO)O1)N1CCN(Cc2ccc3c(c2)OCO3)CC1	6%
120	COc1cccc(CN2CCN(C(=O)c3cccc(OC)c3)CC2)c1	-3%
121	CCN(CC)C(=O)[C@H]1C[C@H](CC(=O)NC(C)(C)C)C(=O)N2CCc3c([nH]c4ccc(Cl)cc34)[C@]12C	4%
